High-throughput results (PubChem BioAssay)
Hsc70 ATP site: Hsc70 inhibitors, probe displacement, primary screen, biochemical, fluorescence polarization (AID 568); Hsc70 fluorescence polarization, probe displacement; higher % means a stronger effect; strong numbers were not always called active; one-dose displacement, % at 20 µM; IC50 in µM for titrated hits; 83,000 tested, under 10 active;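 active = displacement above 50% without optical interference and an IC50 on retest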;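 note: ATPase domain with a fluorescein-tagged ATP probe; 0% = vehicle and 100% = excess ADP; read after one hour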
MT1-MMP reporter: MT1-MMP gene expression reporter suppression – cell-based, luciferase reporter, luminescence (AID 618). MT1-MMP promoter luciferase reporter cells, luminescence. calls from a first round at 10 µM; hits with a dose series show EC50 in µM. 87,000 tested, 0.62% active;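 active = over half of the reporter light lost at 10 µM or EC50 under 50 µM; inactive = the rest and hits that failed the dose series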;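 note: actives suppress MT1-MMP promoter-driven transcription so potencies describe inhibitors; HT1080 fibrosarcoma cells; overnight exposure; toxic or luciferase-blocking compounds were not removed from the actives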
WNV NS2B-NS3 inh: inhibitors of West Nile virus NS2B-NS3 protease; P06935; WNV NS2B-NS3 protease, fluorogenic substrate Ex360/Em465; hits give low values; z-score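 (tested at a level between 10 and 100 µM)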; 65,000 tested, 0.18% active; AID 577;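 active = z-score at -3 or under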;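 note: score is relative to mean and spread of the compound wells of a plate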
Target sequence (P06935 1371-1501 limits assumed): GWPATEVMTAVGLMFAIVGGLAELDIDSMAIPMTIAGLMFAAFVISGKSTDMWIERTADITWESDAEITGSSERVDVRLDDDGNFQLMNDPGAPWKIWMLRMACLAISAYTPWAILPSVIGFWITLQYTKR
Target sequence (P06935 1502-1679 limits assumed): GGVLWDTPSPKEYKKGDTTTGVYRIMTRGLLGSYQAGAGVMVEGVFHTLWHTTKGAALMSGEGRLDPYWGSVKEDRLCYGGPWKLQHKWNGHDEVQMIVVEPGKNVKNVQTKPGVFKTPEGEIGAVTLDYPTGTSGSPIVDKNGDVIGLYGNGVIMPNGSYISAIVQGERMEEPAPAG
Starred values were filed as active, the others as inactive; i = inactive; x = not tested or not shown. A portion of the library; rates above refer to the full screens.

Value order: Hsc70 ATP site | MT1-MMP reporter | WNV NS2B-NS3 inh
Cc1cc(-c2nn3c(-c4ccccc4)nnc3s2)c2ccccc2n1
  -11% | i | -0.15
COc1ccc(CN2C(=O)[C@@H]3C(c4ccc(F)cc4)=NO[C@@H]3C2=O)cc1
  -5.1% | i | 1.7
COc1cc(OC)c(-c2nc3cnccc3n2C)cc1OC
  0.8% | i | -0.99
CCn1cc(C(=O)NCc2ccccn2)c(=O)c2cc(F)c(N3CCN(C)CC3)cc21
  2.1% | i | -0.18
CC(CN1CCN(C)CC1)OC(=O)c1ccc(Cl)cc1Cl (stereo unspecified)
  -2.4% | i | 0.8
CNc1sc(C(=O)c2cccs2)c(N)c1-c1nc2ccccc2s1
  -4.6% | i | -0.66
CCCN1C2=C(C(=O)CC(C)(C)C2)C(c2ccc(F)cc2)C2=C1c1ccccc1C2=O (stereo unspecified)
  -2.8% | i | x
COC(=O)c1cc2nc(-c3ccc(OC)cc3)cc(C(F)(F)F)n2n1
  1.1% | i | -0.27
Cc1ccc(S(=O)(=O)Cc2ccc(C(=O)NCCCN3CCCC3=O)o2)cc1
  3.9% | i | 0.55
CN(C(=O)NC(=O)C1=C(N2CCOCC2)/C(=C/c2ccccc2)CC1)S(C)(=O)=O
  -1.5% | i | 0.07
CCOC(=O)CSC1=C(C#N)C(c2ccc(Cl)cc2)C(C(=O)OC)C(=O)N1 (stereo unspecified)
  -4.3% | i | -0.36
COc1ccccc1NC(=O)COc1ccc(CO)cc1Cl
  3.9% | i | 2.3
CS(=O)(=O)N1Cc2ccccc2CC1C(=O)Nc1ccccc1C(N)=O (stereo unspecified)
  -1.9% | i | -0.61
C=CCn1c(NC(=O)CC)c(C(=O)OCC)sc1=S
  0.7% | i | x
CCN(CC)c1nc2ccccc2c(N)c1-c1ccccc1
  -0.2% | i | x
Cc1cc(C)cc(Nc2ncc3c(n2)CCCC3=O)c1
  -2.6% | i | 1.4
CC(=Nc1cccc(O)c1)c1sc2ccccc2c1O
  26% | i | 0.38
COc1ccc(C(=O)NC2=C(C#N)CCC2)cc1OC
  0.1% | i | 0.07
O=C(c1ccco1)N(CC1CCCO1)c1nc(-c2ccccc2)cs1 (stereo unspecified)
  -6.4% | i | 0.14
Cn1cnc(S(=O)(=O)N2CCc3ccccc32)c1
  6.7% | i | 0.22

Shown as comma-separated lines: part of the list above
mol,Hsc70 ATP site,MT1-MMP reporter,WNV NS2B-NS3 inh
CCOC(=O)CSC1=C(C#N)C(c2ccc(Cl)cc2)C(C(=O)OC)C(=O)N1 (stereo unspecified),-4.3%,i,-0.36
COc1cc(OC)c(-c2nc3cnccc3n2C)cc1OC,0.8%,i,-0.99
O=C(c1ccco1)N(CC1CCCO1)c1nc(-c2ccccc2)cs1 (stereo unspecified),-6.4%,i,0.14

The listing picks up, starting four compounds before the break.
Value order: Hsc70 ATP site | MT1-MMP reporter | WNV NS2B-NS3 inh
CC(=Nc1cccc(O)c1)c1sc2ccccc2c1O
  26% | i | 0.38
COc1ccc(C(=O)NC2=C(C#N)CCC2)cc1OC
  0.1% | i | 0.07
O=C(c1ccco1)N(CC1CCCO1)c1nc(-c2ccccc2)cs1 (stereo unspecified)
  -6.4% | i | 0.14
Cn1cnc(S(=O)(=O)N2CCc3ccccc32)c1
  6.7% | i | 0.22
Cc1ccc(SCCNS(C)(=O)=O)cc1
  -2.1% | i | -0.58
O=C1C2CCCN2C(c2cccc(F)c2)N1c1cccc(Cl)c1 (stereo unspecified)
  -1.0% | i | -0.94
Cc1nc2sc3c(c2c(=O)o1)CCCC3
  -0.8% | i | 1.2
CC(=O)c1ccccc1OCCCN1CCCCC1
  -0.5% | i | 0.72
CCOc1ccc(C)cc1S(=O)(=O)Nc1ccc(Cl)cn1
  -2.2% | i | x
CCC(Sc1nc2ccc(N)cc2s1)C(=O)Nc1nccs1 (stereo unspecified)
  2.6% | i | x
Cc1[nH]c(=O)[nH]c(=O)c1S(=O)(=O)N1CCN(c2cccc(Cl)c2)CC1
  -6.4% | i | 0.37
CCOC(=O)c1ccc(N2C(=O)C3C(C2=O)C(C(=O)c2ccc(Cl)cc2)N2CCCC32)cc1 (stereo unspecified)
  7.0% | i | -0.36
CCN(CC)C(=O)C(C)OC(=O)COc1ccc(Cl)cc1C (stereo unspecified)
  -5.6% | i | 0.62
CC(C)OC(=O)NCCOC(=O)Nc1ccc(Cl)c(Cl)c1
  -3.0% | i | x
CCOc1ccc(C(=O)Nc2ccc(S(=O)(=O)N3CCOCC3)cc2)cc1OCC
  -3.9% | i | -0.5
Cc1ccc(S(=O)(=O)Oc2ccc(/C=N/NC(=O)c3c(Cl)cnn3C)cc2)cc1
  0.2% | i | x
CN(C)/C=N/c1sc2c(c1C#N)CCC2
  -2.6% | i | -0.89
COC(=O)C(C)Sc1nnc(Cc2cc(=O)[nH]c(=O)[nH]2)n1-c1cccc(OC)c1 (stereo unspecified)
  2.3% | i | -1.1
COc1ccc(N2CCN(C(=O)CCCSc3nc4ccccc4[nH]3)CC2)cc1
  0.5% | i | x
COc1cc([C@H]2[C@@H]3CCCC[C@]3(O)CCN2Cc2ccccc2F)ccc1O
  -5.2% | i | 0.08
CN(C)Cc1c(O)ccc2occ(C(=O)c3ccccc3)c12
  -2.6% | i | -0.76
O=c1c2c(n3nnnc3n1Cc1ccccc1)-c1ccccc1CC21CCCC1
  -4.8% | i | -0.97
CCOC(=O)C1CCN(C(=O)c2cn(-c3ccccc3)nc2-c2cccnc2)CC1
  -8.2% | i | -0.69
Cc1cc(Cl)ccc1OCCCC(=O)NO
  2.9% | i | 0.35

Value order: Hsc70 ATP site | MT1-MMP reporter | WNV NS2B-NS3 inh
Cc1cc(NS(=O)(=O)c2ccc(NC(=O)C(C)Oc3ccc(Cl)cc3)cc2)no1 (stereo unspecified)
  0.7% | i | x
Cn1c(=O)[nH]c(=O)c2c1nc(NCCc1ccccc1)n2CC(O)COc1ccccc1 (stereo unspecified)
  2.3% | i | -0.45
Oc1ccc(C(c2nnnn2C2CCCC2)N2CCc3ccccc3C2)cc1 (stereo unspecified)
  6.8% | i | -0.59
CCOC(=O)c1c(C2CC2)csc1NC(=O)CSCc1c(C)noc1C
  -1.7% | i | 0.68
CCC1(C)Cc2c(c(=O)n(-c3ccccc3)c3ncnc(N)c23)CO1 (stereo unspecified)
  -4.2% | i | 1.1
Cc1cc(NC(=O)c2cc3n(n2)C(C(F)(F)F)CC(c2ccco2)N3)no1 (stereo unspecified)
  -2.3% | i | -1.3
CCOc1ccc(NC(=O)c2nn(C)cc2Br)cc1
  -1.6% | i | -0.6
CC(=O)N1CCC(Nc2ccc(C)cc2)CC1
  -1.3% | i | -0.54
COc1ccc2c(c1)CCc1c(C(=O)N3CCCCCC3)noc1-2
  1.9% | i | -0.01
CC(C(=O)NCCCN1CCOCC1)n1cccc1C(=O)c1ccccc1 (stereo unspecified)
  5.9% | i | -0.23
CCN(CC)c1ncnc2c1cnn2C
  -7.4% | i | 1.2
CCCOc1ccc(/C(O)=C2/C(=O)C(=O)N(CCCOC)C2c2cccnc2)cc1 (stereo unspecified)
  -5.4% | i | 0.55
NC(=O)c1c(NC(=O)C2CCCO2)sc2c1CCC2 (stereo unspecified)
  -1.7% | i | -0.8
O=C(O)CC(Cc1ccccc1)c1ccc2c(c1)OCO2 (stereo unspecified)
  -4.0% | i | -0.22
Cc1cccc(-c2c3c(=O)n(C)c(=O)n(C)c3cn2C2CCCCC2)c1
  -1.5% | i | x
O=C(CCS(=O)(=O)c1cccc2nonc12)N1CCCc2ccccc21
  -5.3% | i | -0.0025
CCn1cc(C(=O)NCc2cccnc2)c2cc(OC)c(OC)cc2c1=O
  1.3% | i | 0.71
O=C(NCCCCNC(=O)c1ccco1)c1ccco1
  1.3% | i | 0.26
CN(Cc1ccccc1)C(=O)CCNS(=O)(=O)c1ccc2c(c1)oc(=O)n2C
  0.8% | i | 0.05
CCN(CC)CCNC(=O)Cn1nc(Cc2ccccc2)c2ccccc2c1=O
  -0.4% | i | 2

Value order: Hsc70 ATP site | MT1-MMP reporter | WNV NS2B-NS3 inh
Cc1csc(NC(=O)CCn2c(=O)sc3ccccc32)n1
  -4.1% | i | -0.38
C=CCC(NCc1ccco1)c1ccc(OC)cc1 (stereo unspecified)
  -3.1% | i | x
Cc1c(NC2=NC3(CCCCC3)Cc3ccccc32)c(=O)n(C)n1-c1ccccc1
  1.5% | i | x
CN(CCOC(=O)c1ccc2c(c1)OCCO2)Cc1ccccc1
  -1.5% | i | -0.56
O=C(Oc1ccccc1OC(=O)N1CCOCC1)N1CCOCC1
  6.9% | i | -0.71
COc1cc(C)nc(OCCNC(=O)COc2ccc(Cl)cc2Cl)n1
  3.9% | i | -0.26
Nc1nc(CSc2ncccn2)nc(Nc2ccccc2)n1
  1.3% | i | x
O=C(Nc1ccc2c(c1)OCCO2)c1ccc(NC(=O)C2CCCO2)cc1 (stereo unspecified)
  2.0% | i | -0.72
Cc1cn([C@H]2C=C[C@@H](CO)O2)c(=O)[nH]c1=O
  -0.9% | i | 0.07
O=C(O)c1ccc2c(c1)C(=O)N(c1cc(C(=O)O)ccc1Br)C2=O
  -0.2% | i | 1.9
Cc1ccc(-n2ncc3c(N4CCN(c5ccccc5)CC4)ncnc32)c(C)c1
  -5.0% | i | 0.67
CCCNC(=O)CSc1nc(-c2cccs2)cc(C(F)(F)F)n1
  -0.2% | i | x
Cc1csc(SC(C)C(=O)Nc2ccc(Cl)cn2)n1 (stereo unspecified)
  -1.2% | i | x
COC(=O)CSc1nc(C)c2ccc(OC)cc2n1
  1.7% | i | x
CC(C)C(=O)Nc1cccc(C(=O)Nc2nccs2)c1
  -7.5% | i | 1.4
CN1CCN(Cc2cc(=O)oc3ccc(Cl)cc23)CC1
  -1.8% | i | 0.76
Cc1n[nH]c(C)c1S(=O)(=O)N1CCN(C(=O)c2ccco2)CC1
  -1.9% | i | -1.2
c1ccc2c(c1)CCOC2CNCCCN1CCCCC1 (stereo unspecified)
  -3.8% | i | 1.5
O=C(C1CCCN(S(=O)(=O)c2cnc[nH]2)C1)N1CC(=O)N(CCc2ccccc2)C(=O)C1 (stereo unspecified)
  -2.2% | i | 0.68
CCCCNC(=O)CSc1cc(=O)n(C)c2ccccc12
  1.8% | i | -0.83

Value order: Hsc70 ATP site | MT1-MMP reporter | WNV NS2B-NS3 inh
Cn1nnc2cc(C(=O)NC3CCCCC3)ccc21
  -1.5% | i | -5.2*
COC(=O)C(Cc1ccc(O)cc1)NC(=O)C(C)Oc1ccccc1 (stereo unspecified)
  -2.3% | i | -0.02
COc1ccc(C)cc1S(=O)(=O)N(CC(=O)O)c1ccc(C)cc1
  -6.4% | i | -0.59
O=C(CC1Oc2ccccc2NC1=O)NCCCN1CCN(Cc2ccccc2)CC1 (stereo unspecified)
  2.9% | i | 0.63
CC1(C)CC(=O)C(C=NCCN2CCN(C(=O)C34CC5CC(CC(C5)C3)C4)CC2)=C(O)C1
  -3.5% | i | 0.66
O=C(NCc1ccco1)c1c2c(nc3ccccc13)CCC2
  -0.9% | i | -1.3
CCOc1ccc2nc3c(cc2c1)CN(CCOC)C(=NCCOC)S3
  -2.1% | i | x
Cc1ccc(OCC(=O)NCc2ccccn2)c(Br)c1
  1.6% | i | -0.54
Fc1ccc(NC(=S)NN=C2CCCCCC2)cc1
  -4.3% | i | x
Cc1ccn2cc(CNS(=O)(=O)c3ccc4c(c3)OCCO4)nc2c1
  2.9% | i | -0.78
Cc1cc(N2CCC(C(=O)N3CCN(c4cccc(C)c4C)CC3)CC2)n2ncnc2n1
  1.3% | i | -0.08
Cc1cc(NC(=O)Cn2c(=O)c3c(ncn3CC(C)C)n(Cc3ccccc3)c2=O)no1
  1.9% | i | 0.45
Cc1ccccc1NC(=O)NCCN1C(=O)C2C3C=CC(C3)C2C1=O (stereo unspecified)
  2.8% | i | 1
CCn1c(CSc2nc(C)cc(C)n2)nnc1SCC(=O)Nc1cccc2ccccc12
  -4.3% | i | x
COc1cccc(NC(=O)COC(=O)c2nc3nccc(C)n3n2)c1
  -7.0% | i | x
CC(=O)c1c(C)[nH]c(C(=O)NC2CCCCC2)c1C
  6.8% | i | -0.88
O=C(O)CC1(c2ccccc2)C(=O)c2ccccc2C1=O
  3.0% | i | 0.06
CCN(CC)CCCNC(=O)C1CCC(=O)N(c2ccc(OC)cc2)C1c1ccc(F)cc1 (stereo unspecified)
  -6.3% | i | -0.15
Cc1ccccc1-c1nc(CS(=O)CC(=O)NCCN2CCN(Cc3ccccc3)CC2)c(C)o1 (stereo unspecified)
  0.5% | i | 0.1
CC(Sc1nnnn1C)C(=O)Nc1ccc(N2CCOCC2)cc1 (stereo unspecified)
  -3.8% | i | -0.48
O=C1c2ccccc2C(Nc2ccc3c(c2)OCCO3)N1Cc1ccco1 (stereo unspecified)
  2.6% | i | 0.65
CCC(=O)Oc1ccc(C/C(=N\O)c2ccc(O)cc2O)o1
  6.1% | i | -0.33
N#CC1=C(N)NC(SCc2ccc(Br)cc2)=C(C#N)C12CCCCC2
  0.7% | i | x
